Screening data: PubChem, National Center for Advancing Translational Sciences (NCATS)
D1 ag: agonists of human D1 dopamine receptor; activation, % at 2 µM; P21728; AID 504660; 360,000 compounds, 1% hits; HEK293 T-REx D1 cells, calcium flux, agonist mode; note: 0% is about no effect
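Tetracycline-induced HEK293 TREx D1 cells, force-coupled to calcium signalling, were dye-loaded with a no-wash calcium kit. Compound was pin-added after a 10 s baseline. Fluorescence was read kinetically at 1 cycle/s for 180 s, with calcium rises flagged as agonism.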
D2 potentiator: D2 dopamine receptor (human) potentiation | P14416 | HEK293 T-REx D2, calcium flux, EC20 dopamine potentiation | 340,000 compounds, 0.34% hits | AID 485347 | potentiation, % at 10 µM;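 active = potentiation over 3 SD above the plate norm, cut at about 30% in these data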; note: 0% is about no effect
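Calcium flux readout, no-wash dye, 1 read/s. Inducible HEK293 Trex D2 line, overnight 30 C. Compound alone 180 s (agonist flags), then EC20 dopamine, another 180 s to score potentiation.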
TRHR enhancer: allosteric enhancers of human TRH receptor; P34981; 360,000 compounds, 0.66% hits; AID 493056; TRHR cells, fluo-8 calcium fluorescence, EC20 TRH enhancement; enhancement, % at 2 µM; in the data active = enhancement above about 30%; note: 0% is about no effect
Target sequence (P34981 whole entry, looked up): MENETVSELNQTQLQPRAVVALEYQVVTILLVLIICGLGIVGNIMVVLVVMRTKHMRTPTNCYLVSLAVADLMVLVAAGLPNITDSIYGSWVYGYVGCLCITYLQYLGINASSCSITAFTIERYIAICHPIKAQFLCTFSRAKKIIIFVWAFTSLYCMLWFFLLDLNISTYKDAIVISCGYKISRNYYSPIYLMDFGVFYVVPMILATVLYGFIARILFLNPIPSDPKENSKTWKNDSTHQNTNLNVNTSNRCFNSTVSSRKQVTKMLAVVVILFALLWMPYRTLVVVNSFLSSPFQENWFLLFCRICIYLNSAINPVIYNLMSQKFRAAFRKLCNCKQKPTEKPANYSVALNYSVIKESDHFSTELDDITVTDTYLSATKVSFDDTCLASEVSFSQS
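TRHR-expressing cells loaded with fluo-8 calcium dye were read kinetically (ex 480/em 530) during compound addition, then stimulated with an EC20 of TRH (10 nM final). Enhancement of the Gq-mediated intracellular calcium response was scored.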
D1 PAM: enhances dopamine response at the human D1 receptor; P21728; HEK293 TREx D1 cells, calcium flux, dopamine EC20 potentiation; potentiation, % at 10 µM; 360,000 compounds, 0.036% hits; AID 504651; in the data active = potentiation above about 30%; note: 0% is about no effect
TRHR ag: agonists of human TRH receptor. TRHR cells, calcium flux fluo-8, FDSS agonist mode. activation, % at 2 µM. 360,000 compounds, 0.18% hits; note: 0% is about no effect
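TRHR-expressing cells loaded with fluo-8 calcium dye; 23 nL library compound pin-transferred, kinetic FDSS fluorescence (Ex 480/Em 530) recorded about 180 s for agonist-induced calcium release, before a 10 nM TRH EC20 addition for potentiator mode.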
D1 antagonist: antagonists of human D1 dopamine receptor; activity change, negative = inhibition, % at 10 µM; 360,000 compounds, 3.2% hits; P21728; HEK293 TREx D1 cells, calcium flux, dopamine EC80; stronger effect = lower value; in the data active = activity change below about -30%; note: % is set by controls: 0 for no effect and ±100 for the full control effect
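Inducible Hek293 Trex D1 cells (tetracycline, overnight, 30 C). Calcium dye 30–90 min RT. Antagonist mode: EC80 dopamine added after 180 s compound read.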
Anesthetic bind: candidate novel general anesthetic via apoferritin binding; apoferritin/1-aminoanthracene competitive binding, fluorescence; Potency, µM (series often up to 77.5 µM), inactives show top-dose activity change, negative = displacement, most hits filed as inhibitors; 350,000 compounds, 0.074% hits; AID 485281; active = well fitted inhibition curve with a large enough effect; inconclusive = small, poorly fitted or top-dose-only effect; inactive = no such curve, though single readings can be large or run the other way; note: potency is the fitted concentration of half-maximal effect; % is set by controls: 0 for no effect and ±100 for the full control effect; nearly all actives have a fitted effect of over 20% in size
Target sequence (P02791 2-175 limits assumed): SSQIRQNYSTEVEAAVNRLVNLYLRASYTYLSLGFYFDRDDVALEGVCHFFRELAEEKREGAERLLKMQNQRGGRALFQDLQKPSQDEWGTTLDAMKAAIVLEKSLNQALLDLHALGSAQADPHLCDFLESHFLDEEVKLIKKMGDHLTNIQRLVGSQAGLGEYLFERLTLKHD
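Horse-spleen apoferritin (10 uM) in 50% saturated 1-aminoanthracene in PBS was incubated 10 min at room temperature with compound. Fluorescence (ex 380, em 535 nm) was normalized to free and bound 1-AMA, with concentration-response fitted by a four-parameter Hill equation.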
An asterisk follows results filed as active; ? = inconclusive; · = not tested or not shown; [ ] = another dose, or the depositor's remark. Cut-off read from the data, not from the text of the source, unless noted: active = activation above about 30%; inactive = the rest.

Short forms – A = D1 ag; B = D2 potentiator; C = TRHR enhancer; D = D1 PAM; E = TRHR ag; F = D1 antagonist; G = Anesthetic bind
CSc1cccc(NC(=O)Cn2c(=O)n(Cc3ccccc3)c(=O)c3sc4ccccc4c32)c1
  A: 6; B: -8; C: 0; D: -2; E: 0.3; F: 2; G: -14%

COc1ccc(-c2cc(=O)c3cc(OCC(=O)OC(C)C)ccc3o2)cc1
  A: 19; B: 2; C: 1; D: -1; E: -1.7; F: -60*; G: -1%

COC(=O)c1cccc(Nc2nn3c(=O)c4cc5c(cc4nc3s2)OCO5)c1
  A: -1; B: 3; C: -1; D: 0; E: 0.3; F: -4; G: 2%

Cc1cc(C)cc(OCc2cc(=O)n3c(-c4ccccc4)csc3n2)c1
  A: 1; B: 1; C: -5; D: 1; E: -0.7; F: -12; G: -6%

Cc1csc2nc(COc3ccccc3NC(=O)c3ccccc3Cl)cc(=O)n12
  A: 3; B: -2; C: -6; D: -2; E: -1.1; F: -3; G: 5%

CCCCNC(=O)CSc1nc2ccccc2nc1Cc1ccc(C)cc1
  A: -1; B: 8; C: 2; D: -1; E: 0.1; F: 1; G: 41%[activator]

CCOCC(=O)Nc1ccc(-c2cn3c(C)csc3n2)cc1
  A: 0; B: -1; C: -3; D: 2; E: -0.6; F: -1; G: ?

CC(=O)[C@H]1[C@H]([C@H](O)[C@H](O)CO)O[C@](O)(C(=O)O)C[C@@H]1O
  A: 2; B: -8; C: 1; D: -4; E: 0.5; F: -3; G: ·

CCc1nn2c(-c3ccco3)ccnc2c1-c1ccccc1
  A: 7; B: 9; C: 8; D: -5; E: 1.5; F: -17; G: -4%

COCCNC(=O)CSc1nc2ccccc2nc1Cc1ccc(C)cc1
  A: -1; B: 9; C: 0; D: 1; E: -0.1; F: 7; G: 0%

O=C(CC1Nc2c3ccccc3nc(=S)n2C1=O)NC1CCCCC1 (stereo not drawn)
  A: 2; B: 9; C: -2; D: 1; E: 0.4; F: -4; G: -5%

Cn1c(=O)c2c(nc(NCCCN3CCOCC3)n2Cc2ccc(Cl)cc2Cl)n(C)c1=O
  A: 1; B: 4; C: 3; D: 3; E: -0.1; F: 7; G: -15%

COC(=O)c1ccccc1NC(=O)c1sc2nc(C)cc(C)c2c1NC(=O)c1ccccc1Cl
  A: 0; B: 20; C: -12; D: -2; E: 0.9; F: 3; G: -8%

O=C(Nc1ccc2c(c1)C(=O)NC2=O)c1cccc(Cl)c1
  A: -1; B: -6; C: -1; D: -6; E: -0.7; F: -33*; G: -7%

CCOCCCn1c(=N)c(C(=O)NCC2CCCO2)cc2c(=O)n3cccc(C)c3nc21 (stereo not drawn)
  A: -2; B: -2; C: 1; D: 1; E: 0.8; F: 10; G: ·

O=C(CSc1ccc2nnc(-c3cccnc3)n2n1)NCC1CCCO1 (stereo not drawn)
  A: 4; B: 2; C: 0; D: -1; E: 0.6; F: 7; G: -4%

COc1ccc(Cn2ccc3nc(C)c(C(=O)Nc4ccc(OC)c(OC)c4)cc3c2=O)cc1
  A: 1; B: 7; C: -6; D: -4; E: -0.4; F: 9; G: -4%

COc1ccc(/C=C2\Sc3ccc(C(=O)N4CCc5ccccc5C4)cc3N(C)C2=O)cc1
  A: 2; B: 1; C: 1; D: -1; E: 0.6; F: 0; G: -10%

Cc1ccccc1C(=O)Nc1cccc(OCc2cc(=O)n3c(C)csc3n2)c1
  A: -1; B: -3; C: -1; D: -3; E: -1.1; F: -11; G: -15%

O=C(CSc1ncnc2c1oc1ccccc12)Nc1ccccc1C(F)(F)F
  A: 7; B: 3; C: 16; D: -2; E: 0.4; F: -17; G: 0%

O=C(NCc1cccs1)c1cnc2sccn2c1=O
  A: -1; B: -1; C: -2; D: 3; E: -0.1; F: 7; G: 4%

Cc1cc(C)cc(OCc2cc(=O)n3c4c(sc3n2)CCCC4)c1
  A: 0; B: 8; C: -1; D: 2; E: -1.1; F: -12; G: -5%

COc1ccc(CCn2c(=O)c3cccnc3n(CC(=O)Nc3cccc(C)c3)c2=O)cc1OC
  A: 2; B: 6; C: -1; D: -3; E: 0.2; F: 15; G: -7%

Cc1csc2c(=O)sc(NC(=O)c3ccc(F)cc3Cl)nc12
  A: 10; B: -3; C: -1; D: -6; E: 1.0; F: 2; G: -3%

CCOc1ccc(CCNC(=O)CSc2nnnn2-c2ccccc2Cl)cc1OCC
  A: 1; B: -4; C: -2; D: -5; E: -1.7; F: 2; G: -6%

Cc1ccc(Cc2nc3ccccc3nc2SCC(=O)NCCC(C)C)cc1
  A: 2; B: 9; C: 1; D: 1; E: 0.6; F: -2; G: -16%

Gathered by group: those above containing a halogen.
Short forms – A = D1 ag; B = D2 potentiator; C = TRHR enhancer; D = D1 PAM; E = TRHR ag; F = D1 antagonist; G = Anesthetic bind
Cc1csc2nc(COc3ccccc3NC(=O)c3ccccc3Cl)cc(=O)n12
  A: 3; B: -2; C: -6; D: -2; E: -1.1; F: -3; G: 5%

Cn1c(=O)c2c(nc(NCCCN3CCOCC3)n2Cc2ccc(Cl)cc2Cl)n(C)c1=O
  A: 1; B: 4; C: 3; D: 3; E: -0.1; F: 7; G: -15%

COC(=O)c1ccccc1NC(=O)c1sc2nc(C)cc(C)c2c1NC(=O)c1ccccc1Cl
  A: 0; B: 20; C: -12; D: -2; E: 0.9; F: 3; G: -8%

O=C(Nc1ccc2c(c1)C(=O)NC2=O)c1cccc(Cl)c1
  A: -1; B: -6; C: -1; D: -6; E: -0.7; F: -33*; G: -7%

O=C(CSc1ncnc2c1oc1ccccc12)Nc1ccccc1C(F)(F)F
  A: 7; B: 3; C: 16; D: -2; E: 0.4; F: -17; G: 0%

Cc1csc2c(=O)sc(NC(=O)c3ccc(F)cc3Cl)nc12
  A: 10; B: -3; C: -1; D: -6; E: 1.0; F: 2; G: -3%

CCOc1ccc(CCNC(=O)CSc2nnnn2-c2ccccc2Cl)cc1OCC
  A: 1; B: -4; C: -2; D: -5; E: -1.7; F: 2; G: -6%

Some of the compounds tested; the hit share may differ from the screen's.
